Screens deposited in PubChem BioAssay by National Center for Advancing Translational Sciences (NCATS).
VACV mCherry inh – vaccinia inhibition (mCherry reporter); Vaccinia virus mCherry reporter infection, fluorescence; about a quarter of the inactives have no number; Potency, µM (top dose mostly 36.5 µM), for inactives: at the highest dose activity change, negative = inhibition, actives largely listed as inhibitors; actives 0.63% (n = 310,000); AID 720579; active = well fitted inhibition curve with a large enough effect; inconclusive = small, poorly fitted or top-dose-only effect; inactive = no such curve, though single readings can be large or run the other way; tested in A549 cells; further: nearly all actives have a fitted effect of over 35% in size; inactives centre near -10
VACV Venus inh – vaccinia inhibition (Venus reporter) | Vaccinia virus Venus reporter expression, fluorescence | Potency, µM (titrated, usually from 36.5 µM), for inactives: at the highest dose activity change, negative = inhibition, actives largely listed as inhibitors | actives 0.46% (n = 330,000) | AID 720580; active means well fitted inhibition curve with a large enough effect; inconclusive means small, poorly fitted or top-dose-only effect; inactive means no such curve, though single readings can be large or run the other way; tested in A549 cells; further: nearly all actives have a fitted effect of over 30% in size; inactives centre near -10
* marks the source's active call; other numbers are inactive results; i = inactive; ? = inconclusive; . = not tested or not shown; & = joins results of further samples; [ ] = dose if it differs, or a comment. On the % scale 0 is the no-effect control and ±100 the full control effect; potency means the concentration at half of the fitted maximal effect.

Value order – VACV Venus inh	VACV mCherry inh
> N#CCCc1cccc(CCC#N)c1
    -10%	i
> COc1cc(OC)c(N2CC(C(=O)Nc3cc(Cl)ccc3N3CCOCC3)CC2=O)cc1Cl (stereo not drawn)
    -28%	?
> O=C1Nc2ccccc2S/C1=C/c1cccs1
    ?	-9%
> CC(C)Nc1cc(N2CCCC2)ccc1[N+](=O)[O-]
    -12%	-2%
> C[C@H](O)[C@@H]1C(=O)N2CCc3ccc(N4CCN(C)CC4)cc3[C@@H]2C[C@@H]1N(C)C(=O)c1ccco1
    -8%	i
> CCOc1ccc(/C(C)=N/NC(=O)C(OC)c2ccccc2)cc1 (stereo not drawn)
    -25%	-26%
> O=C(C1CCC(CNc2c(N3CCCCC3)c(=O)c2=O)CC1)N1CCN(c2ccccn2)CC1 (stereo not drawn)
    -12%	i
> CCOc1ccc(N(CC(=O)N2CCCCC2)S(=O)(=O)c2ccc(Cl)cc2)cc1
    -1%	-16%
> O=C(O)CC1S/C(=N/N=C/C=C/c2ccccc2)NC1=O (stereo not drawn)
    -13%&-21%	-15%
> COc1ccc(NC2CCCN(C(=O)c3ccccc3C(F)(F)F)C2)cc1 (stereo not drawn)
    -13%	i
> O=C1CC(N2CCN(Cc3ccc4c(c3)OCO4)CC2)C(=O)N1c1cccc2ccccc12 (stereo not drawn)
    -6%	0%
> CC(=O)NCCc1nc2ccccc2n1Cc1ccc(C)cc1
    -8%	-1%
> COc1cc(Cl)cc(/C=N\NC(=O)c2ccc3c(c2)OCO3)c1O
    ?	?
> O=C(NCc1ccccn1)c1n[nH]c2ccccc12
    -7%	-21%
> Cc1ccc(C)c(N(CC(=O)NC2CCCC2)C(=O)c2oc(C(C)(C)C)cc2C)c1
    -15%	-9%

Following part:
Value order – VACV Venus inh	VACV mCherry inh
> C[C@@H]1CN([C@H](C)CO)S(=O)(=O)c2ccc(Br)cc2O[C@H]1CN(C)C(=O)C1CCCCC1
    ?	-8%
> COc1ccc(C(=O)Cn2nnc(-c3ccccc3NC(=O)C3CCCCC3)n2)cc1
    -1%	-1%
> O=C(O)CC(C(=O)O)n1nc(-c2ccccc2)cc1-c1ccccc1 (stereo not drawn)
    -8%	-7%
> O=C(CCNC(=O)c1ccccc1)N/N=C/c1ccc([N+](=O)[O-])cc1
    -2%	-27%
> COc1ccc(F)c(CN2CCC3(CCC(CNC(=O)c4cc(C)nn4C)O3)CC2)c1 (stereo not drawn)
    -10%	-16%
> Cc1ccccc1N=C1Nc2ccccc2N[C@]12C[C@H]1CCC(=O)N3CC[C@@H](C2)[C@@H]13
    -15%	?
> Ic1ccc(/C=C2\C=Cc3ccccc32)cc1
    -8%	-17%
> Cc1ccc2c(C)cccc2c1
    -14%	-1%
> CCCCCCn1c(=O)c(C(=O)Nc2nc(CC(=O)OCC)cs2)c(O)c2ccccc21
    0%[7.34 µM]	i[7.34 µM]
> Cc1ccccc1C(=O)NNS(=O)(=O)c1ccc(F)cc1
    -11%	-10%
> COc1ccc(NC(=O)N2CCC3(CC2)OCCO3)cc1OC
    -15%	-6%
> COc1cccc(C(=O)NNC(=O)Cc2csc(N)n2)c1
    3%	0%
> Cc1cc(C)n(CC(=O)NC2CCCCC2C)c(=O)c1C#N (stereo not drawn)
    -10%	i
> CC(/C=C1\NC(=S)NC1=O)=C\c1ccccc1
    -16%	?
> Cc1ccc(C)c(NC(=O)CN(C)C(=O)CCN2C(=O)c3ccccc3C2=O)c1
    -7%	-13%

Further compounds follow:
Value order – VACV Venus inh	VACV mCherry inh
> O=CN1CCN(c2ncnc3c2nnn3Cc2c(F)cccc2Cl)CC1
    -4%	-1%
> CC(=O)Nc1cc(C(=O)NCCN2CCN(Cc3ccccc3)CC2)ccc1Sc1ccc(C)cc1
    -13%	-16%
> O=C(/C=C/c1ccc([N+](=O)[O-])cc1)NCCN1C(=O)S/C(=C\c2ccc(F)cc2)C1=O
    5%	i
> Cc1noc(C)c1COC(=O)Cc1ccc(Br)cc1
    -10%	-18%
> CCc1ccc(Cn2c(CNS(=O)(=O)c3ccc(Cl)s3)nc3cccnc32)cc1
    -15%	i
> Cc1ccc2c(c1)nnn2C1CCN(CC(=O)Nc2ccc(F)cc2)CC1
    -2%	-14%
> COc1cc(NC(=O)CSc2nnc(NC(C)C)s2)cc(OC)c1OC
    -15%	i
> Cc1cn(Cc2ccccc2Cn2cc(C)c(=O)[nH]c2=O)c(=O)[nH]c1=O
    -1%[7.34 µM]	i[7.34 µM]
> CCOC(=O)C1(Cc2ccccc2)C(=O)N(CCCN(C)C)c2ccccc21 (stereo not drawn)
    -7%[7.34 µM]	-4%[7.34 µM]
> Cc1ccc(-c2nc3cc(NC(=O)c4cc5ccccc5o4)ccc3o2)cc1
    -8%[7.34 µM]	-6%[7.34 µM]
> O=C1NCN(c2ccccc2)C12CCN(C(c1nnnn1Cc1ccccc1)C1CC1)CC2 (stereo not drawn)
    -7%	5%
> Cc1ccc(NC(=O)c2oc3ccc(S(=O)(=O)N4CCC5(CC4)OCCO5)cc3c2C)c(C)c1
    -20%	i
> Cc1oc2c(c(C)cc3oc(=O)c(CC(=O)NCCCN4CCCC4=O)c(C)c32)c1C
    -12%	-18%
> COc1cc(C(=O)Nc2ccc(-c3cc(C(F)(F)F)nn3-c3ccccc3)cc2)cc(OC)c1OC
    ?	-14%
> COc1ccc(OC)c(S(=O)(=O)NCC(=O)NC2CCCc3ccccc32)c1 (stereo not drawn)
    -1%	-12%

(next part)
Value order – VACV Venus inh	VACV mCherry inh
> COc1ccc(CNC(=O)c2ccc3oc(C(C)C)nc3c2)cc1
    1%	-18%
> CCC(=O)N1CCc2cc(S(=O)(=O)CCC(=O)NCc3ccc(F)cc3)ccc21
    -18%	-23%
> O=C(CN1CCC(NC(=O)c2cccc(F)c2)CC1)Nc1ccc(Br)cc1
    -24%	-18%
> C=CCOC(=O)Nc1nc(CCNC(=O)OCc2ccccc2)c(C(=O)O)s1
    20%	-13%
> COc1cc2c(cc1OC)CN(C(=O)c1ccc3[nH]c(C)c(C)c3c1)CC2
    -3%	7%
> COc1ccc(/C=C2\CCC(C3CCCC3)C2=O)cc1Cn1nc(C)cc1C (stereo not drawn)
    -10%	-10%
> COc1ccc(Cl)cc1NC(=O)Cn1c(=O)n(CCCC(=O)NCCc2ccc(OC)c(OC)c2)c(=O)c2ccccc21
    -7%	-22%
> O=C1CNC(=S)N1CCc1ccccc1Cl
    29%	i
> COC(=O)c1cn(NC(=O)c2cccnc2)c(=O)c2ccccc12
    -13%	-22%
> Cc1ccc(-c2csc(NC(=O)c3ccc4c(=O)n5c(nc4c3)CCCCC5)n2)cc1
    -20%	-2%
> Cc1nn(C)cc1/C=C(/C#N)C(N)=O
    -2%	i
> O=C(c1ccc([N+](=O)[O-])cc1[N+](=O)[O-])N1CCc2ccccc21
    ?	2.2µM*
> CCC(C)NCC(O)COCc1ccc(Cl)cc1 (stereo not drawn)
    -10%	.
> NS(=O)(=O)c1ccc(NCC2COc3ccccc3O2)c([N+](=O)[O-])c1 (stereo not drawn)
    -17%	-16%
> O=C(O)c1ccc(S(=O)(=O)NCc2cccnc2)cc1
    3%	-7%

New compounds follow.
Value order – VACV Venus inh	VACV mCherry inh
> CN1CCN(C(=O)/C=C/c2ccc([N+](=O)[O-])o2)CC1
    ?	-23%
> Cc1cccc(N(CC(=O)NC(C)(C)C)C(=O)CS(=O)CC(=O)Nc2ccc(F)cc2)c1 (stereo not drawn)
    -7%	i
> O=c1nc(-c2ccccc2)cc(C(F)(F)F)[nH]1
    -21%	0%
> COc1ccc(OCC(=O)Nc2ccc3c(c2)OCO3)cc1
    -8%	-2%
> COCCNc1nc(N)c([N+](=O)[O-])c(N2CCCCCC2)n1
    -14%	?
> COc1ccc(C(O)(CCC(C)C)C(CN2CCOCC2)c2ccc(Cl)cc2)cc1 (stereo not drawn)
    -15%	-10%
> CCn1c(CCl)nc2cc(S(=O)(=O)N3CCOCC3)ccc21
    -17%	?
> S=C1NC2CCCCC2N1 (stereo not drawn)
    -1%	-9%
> O=S(=O)(c1ccccc1)c1nc(-c2ccccc2)oc1N1CCOCC1
    1%	i
> N#C/C(=C\c1c[nH]c2ccccc12)c1nnc2n1CCCCC2
    0%	-17%
> CC(C)Oc1ccc(S(=O)(=O)N2CCCCC2)cc1NC(=O)CC1OC(=O)c2ccccc21 (stereo not drawn)
    -5%	i
> O=S1(=O)CC(N2CC=CC2)CN1Cc1ccc(F)cc1 (stereo not drawn)
    -7%	-6%
> COc1cccc(NC(=S)Nc2ccc(Br)cc2Cl)c1
    -4%	i
> Cc1ccc(NC(=O)CC2C(=O)NCCN2C(=O)c2ccc(F)cc2)cc1 (stereo not drawn)
    5%	i
> O=C(N(c1ccccn1)c1ccccn1)C12CC3CC(CC(Cl)(C3)C1)C2
    8%	6%

(next part)
Value order – VACV Venus inh	VACV mCherry inh
> CCc1ccc(C(=O)C(C)OC(=O)c2nn(C)c(=O)c3ccccc23)cc1 (stereo not drawn)
    -20%	-7%
> CC(=O)Nc1ccc(S(=O)(=O)Nc2ccc3nc(C)sc3c2)cc1
    8%	-17%
> COCCCNC(=O)CCc1ccccc1
    -1%	-14%
> c1ccc(Cn2ncc3c(N4CCN(C(c5ccccc5)c5ccccc5)CC4)ncnc32)cc1
    -16%	-7%
> COc1cccc(-c2cnc(C(O)c3ccc(OC)c(F)c3)[nH]2)c1 (stereo not drawn)
    6%	2%
> COc1ccc(-c2nc3sc(CCNC(=O)c4cc(OC)c(OC)c(OC)c4)c(C)n3n2)cc1
    -8%	13%
> COc1ccccc1Nc1nc(C)nc(N)c1S(=O)(=O)c1ccccc1
    -14%	-8%
> O=C(COc1ccc(Cl)cc1)NCCc1ccccn1
    -1%	-12%
> Cc1c(C(=O)NCCN(C)C)n(C)c(=O)c2ccccc12
    5%	i
> Cc1nn(C)cc1C(=O)Nc1c(C)nn(Cc2ccccc2Cl)c1C
    -7%	-21%
> Cc1ncsc1CCOC(=O)c1ccc([N+](=O)[O-])cc1
    -20%	-21%
> O=C(CNc1cccc2ccccc12)N/N=C/c1ccc([N+](=O)[O-])cc1
    -11%	-19%
> COc1ccc(N(C(=O)c2cc3ccccc3oc2=O)C2C=CS(=O)(=O)C2)c(OC)c1 (stereo not drawn)
    -13%	-3%
> COc1cccc(NC(=S)NCc2ccncc2)c1
    -7%	i
> COc1ccccc1CNC(=O)Cc1csc2nc(-c3ccc(Cl)cc3)cn12
    -14%	-5%

Continuation.
Value order – VACV Venus inh	VACV mCherry inh
> Cc1ccc(S(=O)(=O)c2c(C(=O)c3ccccc3)cnc3cc4c(cc23)OCCO4)cc1
    -25%	-17%
> CCn1ccnc1CNC(=O)CC1C(=O)NCCN1CC(c1ccccc1)c1ccccc1 (stereo not drawn)
    -2%	-14%
> Cc1ccc(N2CC(NC(=O)c3ccco3)CC2=O)cc1 (stereo not drawn)
    -2%[7.34 µM]	6%[7.34 µM]
> CCc1ccc2ncc3c(-c4ccc(F)cc4)nn(CC(=O)NC4CCCCC4)c3c2c1
    -6%[7.34 µM]	-2%[7.34 µM]
> COC(=O)C1=C(C)NC(=O)C1(NC(=O)c1ccc(Cl)cc1)C(F)(F)F (stereo not drawn)
    -16%	i
> Cc1cc(C)c(NC(=O)CCc2c(C)noc2C)c(C)c1
    -5%	-10%
> CCCN1CCC(=NNC(=O)CSc2cc(C)c(Br)cc2C)CC1
    -8%	i
> COc1ccc(N(C)C(=O)c2cc3c(Cl)nc4ccccc4c3s2)cc1
    2%	-13%
> COc1ccc(N2CC(c3nc(-c4ccccc4C)no3)CC2=O)cc1Cl (stereo not drawn)
    9%	-4%
> Cc1ccc(-c2ccc(/C=N\NC(=O)c3cc4c(ccc5ccccc54)o3)o2)cc1[N+](=O)[O-]
    9%	.
> C/C(=N\NC(=S)NCc1ccccc1)c1ccco1
    7%	i
> O=C(c1cccs1)N1CCN(Cc2ccccc2)CC1
    -8%	-10%
> Cc1sc2ncn(CC(=O)N(C)C3CCCCC3)c(=O)c2c1C
    1%	-5%
> COC(=O)c1c2[n+](cc3cc(OC)c(OC)cc13)CCc1cc(OC)c(OC)cc1-2
    3%	-9%
> Cc1c(O)cc2n(c1=O)-c1ccccc1C2(C)C
    -21%	-6%

More records
Value order – VACV Venus inh	VACV mCherry inh
> COCC1CCN(C(=O)c2ccc(OC3CCN(Cc4ccccn4)CC3)cc2)C1 (stereo not drawn)
    20%	-4%
> COc1ccc(NC(=O)Nc2cc(-c3cn4cccnc4n3)ccc2OC)cc1
    -8%	-3%
> CC(C)NC(=O)c1ccc(CN2CCC(Cc3ccccc3)CC2)cc1
    -3%	-7%
> O=C(OCC#CCSc1nnc(-c2cccc3ccccc23)o1)c1cccs1
    ?	?
> CC(C)CN(C(=O)c1cccc(S(=O)(=O)N2CCCCC2)c1)C1CCS(=O)(=O)C1 (stereo not drawn)
    -10%	-11%
